Assay outcomes: PubChem BioAssay, several laboratories
eIF4H inh: human eIF4H binding inhibitors, primary screen, translation initiation inhibitor project, biochemical, uHTS, fluorescence polarization | inhibition, % at 35 µM | AID 2012, 2009 | 0.94% of 290,000 active | eIF4H fluorescence polarization binding assay;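 active means 50% or more with normal probe brightness, or confirmed in later tests; about a fifth of its hits are not listed in these tables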;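 further: calls also rest on retests at 20 µM and on dose response follow-up; 0% = protein and probe with vehicle and 100% = probe without protein; strong numbers were not always called active; many hits fall short of the cut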
Rce1 inhib: yeast Rce1p protease inhibitors, primary screen, biochemical, fluorescence, cell-free homogeneous; CAAX prenyl protease 2 (Saccharomyces cerevisiae (strain ATCC 204508 / S288c)), Q03530; yeast membranes, quenched prenylated peptide cleavage fluorescence; calls only; 0.27% of 290,000 active; AID 2563, 2010;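 active means fall in fluorescence gain of 50% or more versus controls, with final raw signal at or below 3038400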;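 further: plate controls were neutral control wells for no effect and wells lacking membranes for full effect; tested at 10 µM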
Target sequence (Q03530 whole entry, looked up): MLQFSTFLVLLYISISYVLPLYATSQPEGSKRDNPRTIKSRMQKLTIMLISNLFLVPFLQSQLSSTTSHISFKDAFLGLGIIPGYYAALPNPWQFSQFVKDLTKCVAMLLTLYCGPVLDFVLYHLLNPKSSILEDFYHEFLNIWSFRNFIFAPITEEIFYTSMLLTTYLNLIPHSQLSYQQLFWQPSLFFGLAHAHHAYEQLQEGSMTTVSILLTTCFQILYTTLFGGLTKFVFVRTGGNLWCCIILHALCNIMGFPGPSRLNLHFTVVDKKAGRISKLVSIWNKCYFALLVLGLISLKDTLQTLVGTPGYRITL
HIV Env fusion: inhibitors of HIV-1 Env-driven cell-cell fusion, primary screen, HeLa-JRFL effector, CEM21 target cells, luciferase. 1.1% of 360,000 active. AID 651610, 2012. inhibition, % at 12.3 µM;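 active means mean replicate inhibition score of at least 50 and every replicate individually at or above 50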;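 further: 0% = plate neutral controls and 100% = maraviroc near 300 nM; one replicate is shown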
MT1-MMP act inh: blockers of MT1-MMP proenzyme processing, primary screen, HT1080 RFP-PRO-GFP cells, GFP/RFP fluorescence; GFP/RFP ratio change, % at 20 µM; GFP/RFP ratio fluorescence, overnight; percent of plate control window, DMSO zero; Matrix metalloproteinase-14 (Homo sapiens), P50281; 0.061% of 360,000 active;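 active means GFP/RFP ratio change of at least 30% with cell ATP level not reduced by more than half and red fluorescence within 50% of control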; further: strong numbers were not always called active
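Test system: HT1080 RFP-PRO-GFP cells; Benchmarks: DMSO and RFP-L50D-GFP cell wells; Timing: cells overnight before dosing, compound overnight, 37 °C, 5% CO2; Compound: one 20 µM compound dose with 1% DMSO; Read-out: GFP/RFP fluorescence ratio.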
CSC inhib: cancer stem cell viability inhibitors, primary screen, luminescence; cancer stem cell-like cells viability; inhibition, % at 7.5 µM; 1.1% of 300,000 active; AID 2717, 2010;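 active means mean at 75% or more and at least half the replicates too; tested in HMLE shEcad cells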;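 further: 0% = median of negative and 100% = median of positive control wells; the first replicate is given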
UUG fidelity: modulators of yeast start codon fidelity, primary screen, whole organism, S. cerevisiae, single point, plate reader | S. cerevisiae UUG-firefly luciferase reporter, luminescence/redox ratio | activity score, % at 18.7 µM | 0.13% of 350,000 active | AID 602363, 2012;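 active means replicate mean at a twofold rise or more, about +100% in these data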;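 further: firefly luciferase made from a UUG start codon reports start codon fidelity; reporter light over untreated wells divided by growth signal over untreated wells; some hits fall short of that in this replicate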
PABP FP inh: PABP poly(A) RNA binding inhibitors, primary screen, biochemical, fluorescence polarization, uHTS; Polyadenylate-binding protein 1 (Homo sapiens), P11940; inhibition, % at 35 µM; 1% of 290,000 active;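 active means 50% or more with normal probe brightness, or confirmed in later tests; about a fifth of its hits are not listed in these tables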;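 further: calls also rest on retests at 20 µM and on dose response follow-up; controls were probe without protein and protein plus probe with vehicle; some compounds called inactive have numbers as strong as hits; many hits fall short of the cut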
Target sequence (P11940 whole entry, looked up): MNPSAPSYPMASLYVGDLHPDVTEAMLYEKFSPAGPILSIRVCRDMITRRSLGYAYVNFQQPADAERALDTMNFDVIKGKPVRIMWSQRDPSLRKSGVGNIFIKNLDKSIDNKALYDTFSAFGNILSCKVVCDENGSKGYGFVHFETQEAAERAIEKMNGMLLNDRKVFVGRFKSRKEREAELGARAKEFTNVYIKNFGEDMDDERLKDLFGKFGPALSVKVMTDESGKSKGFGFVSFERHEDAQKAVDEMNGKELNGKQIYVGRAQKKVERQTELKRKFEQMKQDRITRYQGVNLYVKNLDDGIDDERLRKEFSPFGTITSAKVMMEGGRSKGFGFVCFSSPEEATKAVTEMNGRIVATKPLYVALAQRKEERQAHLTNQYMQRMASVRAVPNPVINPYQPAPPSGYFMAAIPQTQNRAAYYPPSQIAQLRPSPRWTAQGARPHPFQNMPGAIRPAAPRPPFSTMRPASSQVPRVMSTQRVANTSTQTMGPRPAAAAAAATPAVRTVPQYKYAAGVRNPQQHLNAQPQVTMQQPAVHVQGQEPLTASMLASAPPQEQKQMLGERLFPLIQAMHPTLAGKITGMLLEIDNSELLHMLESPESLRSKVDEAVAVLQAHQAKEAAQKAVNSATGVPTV
eIF4H inh retest: recorded beside eIF4H inh, whose call it bears; inhibition, %; compound at 20 µM; confirmation average;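 mean of two retest wells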
PABP FP inh retest: recorded beside PABP FP inh, whose call it bears; inhibition, %; compound at 20 µM; confirmation repeats;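 mean of two retest wells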
MT1-MMP act inh RFP: also measured in MT1-MMP act inh; calls as there; RFP signal change, %; measured here: RFP expression control read;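 0 = vehicle wells; hits needed this value within 50% of zero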
An asterisk follows results filed as active; i = inactive; . = no result given. An excerpt. The share of hits here may be higher or lower than overall.

Start of the listing, in advance:
SMILES	eIF4H inh	Rce1 inhib	HIV Env fusion	MT1-MMP act inh	MT1-MMP act inh RFP	CSC inhib	UUG fidelity	PABP FP inh	others
O=C1OCc2cc(NC(=O)C3COc4ccccc4O3)ccc21 (stereo not given)	7	i	-12	-3	-3	25	-3	2
COC(=O)Nc1nncs1	-4	i	-7	3	6	-20	-11	-9
COc1cc(CN2CCC(C(=O)NC(C)(C)C)CC2)ccc1OCc1ccccc1	.	.	-6	-1	-1	.	2	.
CNc1c(-n2cc(C(=O)OC)c(C(=O)OC)c2C(=O)OC)c(=O)n(C)c(=O)n1C	2	i	-9	-3	-6	4	-12	-1
CC(=O)NCc1cccc(CNC(C)=O)n1	1	i	-33	5	5	7	5	-8
CC(OC(=O)c1ccc2c(=O)n3c(nc2c1)CCC3)C(N)=O (stereo not given)	4.5*	i	1	-1	-1	-4	.	75*	eIF4H inh retest=86*;PABP FP inh retest=58*
CCOc1ccc(NC2c3ccccc3C(=O)N2Cc2ccco2)cc1 (stereo not given)	8	i	74*	-1	-13	-11	-19	4
CN1C(=O)C(O)(CC(=O)/C=C/C=C/c2ccccc2)c2ccccc21 (stereo not given)	3	i	-7	0	4	-4	1	1
COc1ccc(CC(=O)O/N=C(\N)Cc2ccc([N+](=O)[O-])cc2)cc1	-7	i	9	2	1	-10	5	-2
COCc1cc(C2C(C(=O)c3ccco3)=C(O)C(=O)N2CCOCCO)ccc1O (stereo not given)	-1	i	.	2	6	.	-12	11
Cc1cc(C)nc(NC(=O)CSc2ccccn2)n1	-8	i	4	0	-2	6	-19	11
O=C(N/N=C/c1c(Cl)cccc1Cl)c1n[nH]c2c1CCCC2	6	i	-24	3	1	-4	.	4
CCn1c2nc(SCCN3CCOCC3)nnc2c2cc(C)cc(C)c21	-2	i	15	-1	-1	3	3	-1
O=C(O)c1ccc(-c2cccc([N+](=O)[O-])c2)o1	4	i	-6	2	1	-2	.	68	eIF4H inh retest=3;PABP FP inh retest=0

Results, repeating the preview:
SMILES	eIF4H inh	Rce1 inhib	HIV Env fusion	MT1-MMP act inh	MT1-MMP act inh RFP	CSC inhib	UUG fidelity	PABP FP inh	others
O=C1OCc2cc(NC(=O)C3COc4ccccc4O3)ccc21 (stereo not given)	7	i	-12	-3	-3	25	-3	2
COC(=O)Nc1nncs1	-4	i	-7	3	6	-20	-11	-9
COc1cc(CN2CCC(C(=O)NC(C)(C)C)CC2)ccc1OCc1ccccc1	.	.	-6	-1	-1	.	2	.
CNc1c(-n2cc(C(=O)OC)c(C(=O)OC)c2C(=O)OC)c(=O)n(C)c(=O)n1C	2	i	-9	-3	-6	4	-12	-1
CC(=O)NCc1cccc(CNC(C)=O)n1	1	i	-33	5	5	7	5	-8
CC(OC(=O)c1ccc2c(=O)n3c(nc2c1)CCC3)C(N)=O (stereo not given)	4.5*	i	1	-1	-1	-4	.	75*	eIF4H inh retest=86*;PABP FP inh retest=58*
CCOc1ccc(NC2c3ccccc3C(=O)N2Cc2ccco2)cc1 (stereo not given)	8	i	74*	-1	-13	-11	-19	4
CN1C(=O)C(O)(CC(=O)/C=C/C=C/c2ccccc2)c2ccccc21 (stereo not given)	3	i	-7	0	4	-4	1	1
COc1ccc(CC(=O)O/N=C(\N)Cc2ccc([N+](=O)[O-])cc2)cc1	-7	i	9	2	1	-10	5	-2
COCc1cc(C2C(C(=O)c3ccco3)=C(O)C(=O)N2CCOCCO)ccc1O (stereo not given)	-1	i	.	2	6	.	-12	11
Cc1cc(C)nc(NC(=O)CSc2ccccn2)n1	-8	i	4	0	-2	6	-19	11
O=C(N/N=C/c1c(Cl)cccc1Cl)c1n[nH]c2c1CCCC2	6	i	-24	3	1	-4	.	4
CCn1c2nc(SCCN3CCOCC3)nnc2c2cc(C)cc(C)c21	-2	i	15	-1	-1	3	3	-1
O=C(O)c1ccc(-c2cccc([N+](=O)[O-])c2)o1	4	i	-6	2	1	-2	.	68	eIF4H inh retest=3;PABP FP inh retest=0
CNC(=S)NCC(O)c1ccc([N+](=O)[O-])cc1 (stereo not given)	2	i	-18	-1	1	-1	.	1
Cc1c(NC(=O)OCc2ccccc2)c(=O)n(-c2ccccc2)n1C	-11	i	6	0	3	2	-12	6
CC(=O)c1c(O)c(C)c(O)c2c1OC1=CC(=O)/C(=C(/C)N)C(=O)C12C (stereo not given)	.	.	12	-3	-3	.	-11	.
O=C(CSc1ncc(-c2ccccc2)n1-c1ccccc1)NCc1ccco1	-1	i	6	-1	-8	60	0	-4
CCCNC(=O)c1oc2ccc3c(c2c1C)C=CC(C)(C)O3	5	i	-43	1	-4	3	-19	-2
CCCCN(C(=O)c1ccc(Br)o1)C1CCS(=O)(=O)C1 (stereo not given)	.	i	-5	1	5	5	5	.
CCCCc1ccc(NC(=O)C2CCCO2)cc1 (stereo not given)	3	i	.	-1	1	-5	-16	3
O=C(Nc1cccc(Cl)c1)c1cc2c(=O)n3ccccc3nc2s1	2	i	13	1	1	-21	-12	4
Fc1ccc(-c2nnn(Cc3ccc(F)cc3Cl)n2)cc1	-6	i	-22	3	-2	10	-4	-3
c1ccc2nc(-c3ccncc3)ccc2c1	-4	i	i	-5	3	-1	-2	-9
Cc1ccnc(N2CCC(C(=O)Nc3ccc4c(c3)CCC4)CC2)n1	-7	i	28	4	2	10	-2	-3
The listing continues.
SMILES	eIF4H inh	Rce1 inhib	HIV Env fusion	MT1-MMP act inh	MT1-MMP act inh RFP	CSC inhib	UUG fidelity	PABP FP inh	others
CN1C(=O)C(=O)N(CC(=O)N2CCc3ccccc32)C1=O	-1	i	.	-3	-2	2	-10	6
COc1ccc(NC(=O)Cn2nnc(C(=O)NCc3ccc(C)cc3)c2N)cc1Cl	17	i	2	3	2	-14	-1	12
O=C(Cn1ccc2ccccc2c1=O)NCCC(=O)N1CCCCC1	-4	i	-13	1	6	-4	-15	-13
CC1(C)N=C(N)N=C(N)N1c1ccc(Oc2ccc(Cl)cc2)c(Cl)c1	-10	i	28	13	-25	89*	2	15
CCCCC(=O)NC(c1ccccc1OC)c1ccc2cccnc2c1O (stereo not given)	19	i	-22	10	-5	138*	-40	-7
COc1ccccc1NC(=O)C1(C)Cc2ccccc2C(=O)O1 (stereo not given)	-2	i	-18	0	1	-2	-7	-4
Cc1ccc(SCC(=O)Nc2ccc(F)cc2[N+](=O)[O-])cc1C	7	i	-2	-4	3	4	.	-8
S=C1NCN(C2CCCCC2)CN1Cc1ccccc1	-10	i	.	1	6	-4	.	-3
CC(C)(C)CC(=O)Nc1ccc(-c2nnc3n2CCCCC3)cc1	78*	i	-3	1	1	-4	-10	62*
CCOC(CNCc1cc(C)c2[nH]c3ccccc3c2c1C)OCC	.	.	6	11	-6	.	-10	.
CC(C)(C)c1ccc(/C=C/C(=O)Nc2cccnc2)cc1	-16	i	-94	6	-1	14	.	1
CCOC(=O)c1c(C)[nH]c(C)c1C(=O)CSc1nc2ccccc2c(=O)n1-c1ccc(Cl)cc1	-8	i	10	-13	-18	18	.	2
Cc1ccc2nc(SCC(=O)Nc3c(F)cccc3F)[nH]c2c1	0	i	-6	1	-2	-13	-18	12
Cc1cc(C)cc(OCc2ccc(C(=O)N3N=C(C(F)F)CC3(O)C(F)F)o2)c1 (stereo not given)	1	i	-14	7	1	11	-11	14
CNc1oc(/C=C/c2cccc(OC)c2)nc1C#N	-4	i	.	6	-1	18	2	14
O=C(NC(=S)Nc1ccc2oc(=O)ccc2c1)c1cccc(Cl)c1	-11	i	-2	-1	-3	4	-3	-6
CC1=C/C(=N\NC(=O)c2ccc(O)cc2)CC1	-17	i	-36	0	4	-6	.	-10
O=C(NC(=S)N1CCN(c2ccccc2)CC1)c1c(F)cccc1F	-8	i	-4	1	4	13	-15	11
CC1(c2ccc(Cl)cc2)NC(=O)N(CC(=O)N2CCc3ccccc3C2)C1=O (stereo not given)	.	.	8	-1	-4	.	-8	.
Cc1ccc(OCC(=O)N(Cc2ccccc2)C(C)C)c([N+](=O)[O-])n1	-2	i	-15	2	3	4	.	-7
CSc1nnc([C@@H]2CCCN2C(=O)OC(C)(C)C)o1	-3	i	4	3	5	17	.	-11
COc1ccc(CCNC(=S)NC(=O)c2ccc(Br)cc2)cc1OC	2	i	17	0	-3	9	.	-11
COc1cc2[nH]c(=O)n(CCCC(=O)NC3CCCCC3)c(=O)c2cc1OC	-11	i	.	1	3	-6	-13	0
CC(C)CNC(=O)c1cc(-c2ccc(Cl)c(Cl)c2)on1	-3	i	.	-1	-4	-12	.	-7
Cc1cc(OCc2cc(C(=O)NCCN3CCCCC3CO)no2)cc(C)c1Cl (stereo not given)	-6	i	.	0	-2	51	-14	-12
The list goes on:
SMILES	eIF4H inh	Rce1 inhib	HIV Env fusion	MT1-MMP act inh	MT1-MMP act inh RFP	CSC inhib	UUG fidelity	PABP FP inh	others
Fc1ccc(CSc2nncn2NCc2ccccc2)cc1	2	i	12	6	2	-11	-19	-10
COc1cccc(-c2nnc(NC(=O)c3ccc4ncsc4c3)o2)c1	17	i	19	3	2	23	-17	0
Cc1ccc(NC(=O)/C=C/c2ccc3c(c2)OCO3)nc1	-11	i	-64	-5	-9	110*	.	4
CCc1ccc(NC(=O)C(C)OC(=O)c2ccc(NS(=O)(=O)c3ccc(C)c([N+](=O)[O-])c3)cc2)cc1 (stereo not given)	-10	i	23	12	-34	40	-13	-15
CC(C)[C@H](NC(=O)N1c2ccccc2NC(=O)[C@@H]1C(C)C)C(=O)N1CCC(C(=O)O)CC1	-14	i	.	1	5	-14	-6	-1
Cc1cc(C(=O)N/N=C/c2ccc(N3CCOCC3)cc2)c(C)o1	16	i	-7	1	5	16	.	-2
COc1ccc(/C=C/C(=O)Nc2ccc3c(c2)CCC3)cc1OC	7	i	3	2	-2	15	-13	1
Cc1cc(C)cc(NC(=S)Nc2ccccn2)c1	-18	i	7	3	1	1	.	-2
CNc1cc(C)nc(-n2nc(C)cc2C)n1	-2	i	.	5	0	-12	-16	6
COCCCn1c(SCC(=O)Nc2nc3ccccc3s2)nnc1-c1ccoc1C	-8	i	-27	0	1	-15	-15	-10
Cc1ccnc(NC(=O)CCNS(=O)(=O)c2ccc(C)c(C)c2)c1	-11	i	-25	-4	0	.	-28	-9
CCC(C)NC(=O)CSC1=Nc2ccccc2C2=NC(CCC(=O)NCc3ccco3)C(=O)N12 (stereo not given)	5	i	-27	2	5	-10	-12	-8
O=C(CSc1nnc(-c2ccncc2)o1)c1cccc([N+](=O)[O-])c1	-3	i	24	3	-1	.	-4	-3
Cc1c(C(=O)NCc2ccccc2CN2CCCC2)oc2ccccc12	.	.	6	7	4	.	-10	.
O=C1[C@@H]2CSCN2C(=O)CN1CCc1cccc(F)c1	-5	i	-44	2	3	-15	6	-4
O=C(CSc1nnc(-c2ccc(S(=O)(=O)N3CCCC3)cc2)o1)NCC1CCCO1 (stereo not given)	2	i	-2	-2	4	-7	.	8
CC(C)(C)c1ccc(C(=O)N2CCCC2)s1	2	i	-8	-2	1	-2	-3	-10
CN(Cc1ccccc1)C(=O)Cn1nnc(-c2ccccc2)c1COc1ccccc1	.	.	-4	0	0	.	-15	.
CCc1ccc(OCC(O)CNC(C)(C)C)cc1 (stereo not given)	6	i	-13	10	-3	15	-2	13
